CBX7 AlphaScr – CBX7 inhibition, primary AlphaScreen | O95931 | AlphaScreen His6-CBX7 / biotin-H3K27me3 peptide binding; hits give low values | normalised signal (fraction of DMSO) (test concentration not listed) | 66,000 compounds, 1.1% hits; in the data active means normalised signal below about 0.5;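 further: 100 nL library stock added to about 20 µL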
Target sequence (O95931 whole entry, looked up): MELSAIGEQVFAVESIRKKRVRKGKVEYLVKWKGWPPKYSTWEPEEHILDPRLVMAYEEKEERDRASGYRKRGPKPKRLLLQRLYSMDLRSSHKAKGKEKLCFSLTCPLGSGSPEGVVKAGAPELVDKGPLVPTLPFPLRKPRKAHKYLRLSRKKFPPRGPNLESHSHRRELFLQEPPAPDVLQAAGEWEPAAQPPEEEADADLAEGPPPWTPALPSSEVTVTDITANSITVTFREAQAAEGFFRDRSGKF
CBX7 AlphaScr z-score – recorded beside CBX7 AlphaScr, whose call it bears; z-score; measured here: z-score of CBX7 signal; some inactives read as strong as hits; reference of the scale not given here;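 same signal on another scale; lower means less binding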
Starred values were filed as active, the others as inactive; & = joins results of further samples.

SMILES	CBX7 AlphaScr	CBX7 AlphaScr z-score
CCOC(=O)C1CCN(c2c(N3CCN(c4ccc(C)cc4)C(C)C3)c(=O)c2=O)CC1 (stereo not given)	0.96	-1
CCn1cc(C(=O)NCc2cccnc2)c(=O)c2ccc(C)nc21	1	0.17
O=C(NC1CCCC1)C(c1ccc(Cl)cc1)N1CCC(Cc2ccccc2)CC1 (stereo not given)	0.83	-4.3
COc1ccccc1C(=O)Nc1ccc2oc(-c3cc(Br)ccc3Cl)nc2c1	0.92	-2.1
CCCN1CCN(C(=O)c2cc3sc(Cl)cc3n2CC)CC1	1	0.38
CC(C)c1ccc2oc(-c3ccc(NC(=O)c4cccc(Cl)c4)cc3)nc2c1	1.1	2.2
Cc1ccccc1OCC(=O)Nc1ncc(Cc2ccc(Cl)cc2)s1	0.96	-0.29
Cc1cccc(NC(=O)C2CCN(C(=O)c3cc4sccc4n3Cc3ccc(F)cc3)CC2)c1C	1	1.2
CC(C)c1ccc(C2c3c(-c4ccccc4)n[nH]c3C(=O)N2c2ccccc2)cc1 (stereo not given)	0.84	-8.1
Cc1ccc(Nc2nc(-c3ccccc3Cl)nc3ccccc23)cc1F	1.1	2.5
CC(C)(C)NC(=O)CCCC1=NS(=O)(=O)c2ccccc2N1	1.2	1.5
Cc1ccc(Nc2c(-c3ccc(C)s3)nc3ncccn23)cc1	0.94	-0.68
COc1cc(OC)cc(C(=O)Nc2ccc(S(=O)(=O)Nc3cnc4ccccc4n3)cc2)c1	1.1	3.8
COC(=O)c1ccccc1NC1c2ccccc2C(=O)N1Cc1ccccc1Cl (stereo not given)	0.94	-0.062
O=C(Cn1cc2c(n1)CCCC2)Nc1cccc(C(F)(F)F)c1	1.1	2.7
CCOCCCNC(=O)c1ccc2c(c1)N(Cc1cccc(F)c1)C(=O)c1ccccc1S2	0.98	-0.46
Cc1ccc(NC(=O)CSc2nccn2-c2ccc(F)cc2)cc1	0.97	-0.25
COC(CNC(=O)C1CCN(Cc2nc(-c3cccc(Cl)c3)oc2C)CC1)OC	1.4	3.8
COCCNC(=O)c1cc(Nc2cc(C)ccc2C)nc2ccccc12	0.93	-1.1
CC(=O)N1c2ccccc2NC2=C(C(=O)CC(c3ccccc3)C2)C1c1cccs1 (stereo not given)	0.85	-1.6

Some of these compounds in order of molecular weight, highest first:
SMILES	CBX7 AlphaScr	CBX7 AlphaScr z-score
COc1cc(OC)cc(C(=O)Nc2ccc(S(=O)(=O)Nc3cnc4ccccc4n3)cc2)c1	1.1	3.8
COc1ccccc1C(=O)Nc1ccc2oc(-c3cc(Br)ccc3Cl)nc2c1	0.92	-2.1
CC(=O)N1c2ccccc2NC2=C(C(=O)CC(c3ccccc3)C2)C1c1cccs1 (stereo not given)	0.85	-1.6
COC(=O)c1ccccc1NC1c2ccccc2C(=O)N1Cc1ccccc1Cl (stereo not given)	0.94	-0.062
CC(C)c1ccc2oc(-c3ccc(NC(=O)c4cccc(Cl)c4)cc3)nc2c1	1.1	2.2
Cc1ccccc1OCC(=O)Nc1ncc(Cc2ccc(Cl)cc2)s1	0.96	-0.29
CCCN1CCN(C(=O)c2cc3sc(Cl)cc3n2CC)CC1	1	0.38

Other structures follow.
SMILES	CBX7 AlphaScr	CBX7 AlphaScr z-score
Cc1ccc(Nc2nc(C(F)(F)F)c(-c3ccc(Cl)cc3)s2)c(C)c1	1&1	1.1&0.5
Cc1ccc(-c2csc(NC(=O)c3ccc(S(=O)(=O)N(C)C)cc3)n2)c(C)c1	0.96	-0.63
Cc1ccc2c(C)nc(Nc3nc(C)c(Cc4ccccc4)c(=O)[nH]3)nc2c1	1	-0.048
Cc1cc(C)n(-c2nc3ccccc3nc2N2CCOCC2)n1	1	0.7
CC(C)(CO)NCc1cccc(OCc2ccc(Cl)cc2)c1	0.99	-0.31
COCCCNC(=O)c1c[nH]c2ccc(S(=O)(=O)Nc3ccc(C(C)C)cc3)cc2c1=O	0.93	-1.3
COc1ccc(-n2c(SCC(N)=O)nc3c(c2=O)C2(CCCC2)Cc2ccccc2-3)cc1	0.99	-0.4
Cc1ccccc1-n1cnc2cc(NC(=O)c3ccccc3)ccc21	0.72	-0.78
Cc1onc(-c2ccccc2Cl)c1C(=O)NC(Cc1ccccc1)C(=O)O (stereo not given)	1.1	0.13
Cc1ccc(NC2=NS(=O)(=O)c3ccccc32)cc1	0.97	-0.69
Cc1ccc(S(=O)(=O)NCc2ccc(C(=O)NCCc3ccc(Cl)cc3)cc2)cc1	0.93	-0.94
CNc1oc(-c2ccc(Cl)cc2)nc1S(=O)(=O)c1ccc(C)cc1	0.97	-1.3
COc1ccc(CCNC(=O)C2CCN(Cc3nc(-c4ccccc4F)oc3C)CC2)cc1OC	0.98	-0.19
Cc1cc(Cl)ccc1OCCCC(=O)N1c2ccc(F)cc2CCC1C (stereo not given)	1	0.00086
O=C(NCCCN1CCCCCC1)c1cc2c(s1)-c1ccccc1OC2	1.1	6.4
COc1ccc(C2C(Oc3ccccc3)C(=O)N2c2cc(C)ccc2C)cc1OC (stereo not given)	1	0.34
CCCCCCCNC(=O)Cn1nc(-c2ccc(C)cc2)ccc1=O	1	0.074
COc1ccccc1N1CCN(C(=O)c2ccc3c(=O)n(CCc4ccccc4)c(=O)[nH]c3c2)CC1	1	-0.14
CC(C)Cc1cc(C(=O)NCc2ccc(F)cc2)no1	1.1	2.6
Cc1ccc(-c2nnc(Nc3ccc(S(N)(=O)=O)cc3)c3ccccc23)cc1S(=O)(=O)N1CCCCC1	1.1	0.18

The closing 7 entries of the section before open the next one:
SMILES	CBX7 AlphaScr	CBX7 AlphaScr z-score
Cc1cc(Cl)ccc1OCCCC(=O)N1c2ccc(F)cc2CCC1C (stereo not given)	1	0.00086
O=C(NCCCN1CCCCCC1)c1cc2c(s1)-c1ccccc1OC2	1.1	6.4
COc1ccc(C2C(Oc3ccccc3)C(=O)N2c2cc(C)ccc2C)cc1OC (stereo not given)	1	0.34
CCCCCCCNC(=O)Cn1nc(-c2ccc(C)cc2)ccc1=O	1	0.074
COc1ccccc1N1CCN(C(=O)c2ccc3c(=O)n(CCc4ccccc4)c(=O)[nH]c3c2)CC1	1	-0.14
CC(C)Cc1cc(C(=O)NCc2ccc(F)cc2)no1	1.1	2.6
Cc1ccc(-c2nnc(Nc3ccc(S(N)(=O)=O)cc3)c3ccccc23)cc1S(=O)(=O)N1CCCCC1	1.1	0.18
COc1ccc(-n2c3c(cc(C(=O)Nc4ccc5c(c4)C(=O)NC5=O)c2=O)C(=O)CCC3)cc1	1.3	1.2
Cc1cc(C)nc(Nc2ncc(O)n2-c2ccc(C)c(C)c2)n1	0.93	-2.6
COc1cc(NS(=O)(=O)c2ccc(NC(=O)c3ccc(OC)c(OC)c3)cc2)nc(OC)n1	0.93	-0.84
CCn1c(SC(C)C)nnc1-c1c[nH]c2ccccc12	1	-0.076
COC(=O)c1cc2ccsc2n1Cc1nc(-c2ccccc2)oc1C	0.8	-5.7
CCCN(CCC)c1c(NC2CCN(C(=O)OCC)CC2)c(=O)c1=O	1	0.74
CCCC(=O)Nc1ccc(-c2cn3ccccc3n2)cc1	1.1	1.6
COc1ccc(OC)c(NC(=O)CCc2c(C)nc3c(c(C)nn3-c3ccccc3)c2C)c1	0.78	-1.7
CCOC(=O)c1cc(-c2ccc(OC)cc2)n(CCC(=O)NC2CCCCCC2)c1C	0.87	-1.3
O=C1C2C3C=CC(O3)C2C(=O)N1c1cc(C(F)(F)F)ccc1Cl (stereo not given)	0.91	-1.1
Cc1ccc(Cl)cc1NC(=O)Nc1ccc2c(c1)N(C)C(=O)CS2	0.95	-1
NC(=O)c1c(NC(=O)c2ccc(F)cc2)sc2c1CCCC2	1	0.88
COc1ccc(-c2cc3nc(C)c(CCC(=O)Nc4ccc(F)cc4F)c(C)n3n2)c(OC)c1	0.96	-0.51
CN(CCCNC(=O)Cn1nc(Cc2cccnc2)c2ccccc2c1=O)Cc1ccccc1	1.1	0.086
O=C1CCc2cc(S(=O)(=O)N3CCC(C(=O)NCc4ccc5c(c4)OCO5)CC3)ccc2N1	0.97	-0.68
O=C(Nc1ccc2c(c1)OCO2)c1cc(-c2cccc(Cl)c2)on1	0.96	-0.98
COc1ccc(OCC(O)CN2CCC(CN3C(=O)c4cccc5cccc(c45)C3=O)CC2)cc1 (stereo not given)	0.8	-2.1
O=C(NCCCN1CCCC1=O)c1cnn(-c2ccccc2)c1-n1cccc1	1.1	2
Cc1cccc(OCc2nc(-c3ccc(Cl)cc3)no2)c1C	1.4	4.7
Cc1ccc(S(=O)(=O)Nc2ccccc2CNCc2ccccc2)cc1	0.95	-0.11
COC(CNC(=O)CN1C(=O)CCSc2ccccc21)OC	0.83	-2.1
Cc1ccc(Cn2nnc3c(=O)n(CC(=O)N4CCC(C)CC4)cnc32)cc1	0.82	-3
COc1ccc(-c2nn(C)c(=O)c3ccccc23)cc1CNC(=O)c1ccccc1Cl	1.1	0.69
Cc1cc(OCc2nc(-c3ccncc3)no2)cc(C)c1Br	0.99	-0.17
COc1ccc(N2CCN(Cc3nc(-c4ccc(C)cc4)no3)CC2)cc1	0.32*	-6.5*
CC1CCN(C(=O)CSc2nnc(-c3cccc(Cl)c3)o2)CC1	1.2	2.5
CCC(=O)N1CCc2cc(S(=O)(=O)NC(CC(C)C)C(=O)NCCN3CCCC3)ccc21 (stereo not given)	1	0.28
O=C(c1cc(-c2cccc(Cl)c2)on1)N1CCCc2ccccc21	0.99	-0.081
Cc1ccccc1Nc1c(-c2ccccc2)nc2ncccn12	1	-0.075
Cc1noc(/C=C/c2cccs2)c1S(=O)(=O)N1CCC(C(=O)NCc2cccnc2)CC1	0.88	-0.25
O=c1nc(-c2ccccc2)c2ccccc2[nH]1	0.94	-0.67
CCOC(=O)N1CCC(Nc2c(NCCCN3CCN(C4CCCCC4)CC3)c(=O)c2=O)CC1	1	1
O=C(NC1CC1)c1ccc2c(c1)N(Cc1ccc(F)cc1)C(=O)c1ccccc1S2=O (stereo not given)	0.98	-0.63
CCc1ccc(Nc2cc(C(=O)NCc3cccs3)c3ccccc3n2)cc1	1	0.71
COc1cccc(-n2c(C)nc3c(cnn3-c3ccccc3Cl)c2=O)c1	1.1	1.1
Cc1nc(N(C)C2CCCCC2)c2c3c(sc2n1)CCCC3	0.93	-1.8
CCc1nnc(NS(=O)(=O)c2ccc(NC(=O)c3cccc(F)c3)cc2)s1	1.1	0.23
Cc1ccc(C)c(Cn2c(=O)n(CCC(=O)NCc3ccc4c(c3)OCO4)c(=O)c3sccc32)c1	0.84	-2.6
COc1ccc(-c2nc(Cn3c(SCc4ccc(C)cc4)nc4ccncc43)c(C)o2)cc1OC	0.83	-4.2
O=C(Cn1c2c(c(-c3ccccc3Cl)cc1=O)CCC2)NC1CCCCC1	0.71	-1.8
CC(=O)NCC(=O)Nc1ccc2nc(N3CCCCC3)cc(C)c2c1	1.1	1.4
O=C(C1CC1)N1CCc2cc(S(=O)(=O)Nc3cccc(F)c3)ccc21	1	0.012
COCCNC(=O)c1cc2nc(-c3cccs3)cc(C(F)(F)F)n2n1	0.97	-0.28
Cc1nc2c(-c3ccccc3)c(C)nn2c(C)c1CCC(=O)N1CCN(Cc2ccccc2)CC1	1.1	1.5
Cc1ccc(-c2nc3ccccc3o2)cc1NC(=O)COc1ccc(C(C)C)cc1	0.96	-0.7
COc1ccccc1C(=O)NCC(c1cccnc1)N(C)C (stereo not given)	0.94	-0.47
Cc1ccc(NC(=O)c2cnc(N3CCN(c4ccccn4)CC3)c3ccccc23)c(Br)c1	1.1	3.4
CCCCn1c(C2CC(=O)N(c3cc(C)cc(C)c3)C2)nc2ccccc21 (stereo not given)	0.88	-0.5
COc1ccc(CCNC(=O)CN2CCN(Cc3ccc(F)cc3)C2=O)cc1OC	0.88	-1.7
O=C1C2C3c4ccccc4C(C(=O)O)(c4ccccc43)C2C(=O)N1c1ccccc1F (stereo not given)	1	0.18

More structures follow:
SMILES	CBX7 AlphaScr	CBX7 AlphaScr z-score
CN(C(=O)c1cc2c(s1)-c1ccccc1OC2)c1cccc(Cl)c1	1.2	9.2
CCCCCn1c(CCNC(=O)c2cccc(C)c2)nc2ccccc21	0.92	-2.4
O=C1CN(C(=O)c2ccccc2)C(c2ccc(F)cc2)c2cc(Br)ccc2N1 (stereo not given)	0.98	-0.44
CC(=O)Nc1nonc1-c1nc2ccccc2n1Cc1cc2c(cc1Cl)OCO2	0.99	-0.35
COc1ccccc1C(=O)Nc1c2c(nn1-c1ccc(Cl)cc1)CSC2	1.1	3.1
COc1ccc(-c2nc(CN3CCC(C(=O)NCc4ccc(C)cc4)CC3)c(C)o2)cc1OC	0.93	-1
Cc1ccc(Nc2c(-c3c[nH]c4ccccc34)nc3ccc(Br)cn23)cc1	0.49*	-19*
COc1ccc(-c2nc3ncccn3c2Nc2ccccc2)cc1	1.1	2.5
CCOc1ccc(-c2csc(NC(=O)c3cncc(Br)c3)n2)cc1	1	0.04
COCCNC(=O)c1ccc2c(c1)N(Cc1cc(C)ccc1C)C(=O)c1ccccc1S2=O (stereo not given)	1.1	1.6
Cc1cccn2c(Nc3ccc4c(c3)OCCO4)c(-c3ccsc3)nc12	0.93	-0.095
Cc1ccc(-c2nn(CCC(=O)Nc3ccc(Br)cc3)c(=O)c3ccccc23)cc1	1	0.1
CCc1ccccc1NC(=O)Cn1c(SCc2ccc(F)cc2)nc2ccncc21	0.98	-1.2
CCCCn1c(=O)c(-c2ccc3ccccc3n2)cc2ccccc21	1.5	13
CN1C(c2ccccc2)CC(O)(C#Cc2ccccc2)CC1c1ccccc1 (stereo not given)	0.87	-3.6
Cc1ccc(C(=O)N2CC(=O)Nc3ccc(Cl)cc3C2c2ccc(F)cc2)cc1C (stereo not given)	1	0.72
COc1ccc(CNC(=O)c2cc(-c3cccc(OC)c3)on2)cc1	1.2	1.3
COc1ccc(-n2c(Cc3cc(=O)[nH]c(=O)[nH]3)nnc2SCC(=O)Nc2ccc(C)cc2C)cc1	0.87	-1.9
CCN(C(=O)c1cc2c(s1)-c1ccccc1OC2)c1cccc(Cl)c1	1.1	7.1
O=C(Nc1ccc2c(c1)OCO2)c1cc2n(n1)C(C(F)(F)F)CC(c1ccccc1)N2 (stereo not given)	1	0.12
CC(=O)Nc1ccc(Oc2ccc3c(c2)C(=O)N(c2ccc(C)cc2)C3=O)cc1	1.1	2.4

From PubChem BioAssay

These rows are one share of the data; the hit share may differ from the screen's.
